StopGo reporter: FMDV 2A StopGo reporter, luciferase signal; hit rate 1.2% among 410,000; human cells with a luciferase reporter of 2A StopGo recoding; control for the full effect not named in the record; AID 1159524; Potency, µM (series often up to 57.9 µM), inactives show top-dose signal change, negative = less light; active = well fitted falling curve with a large enough effect; inconclusive = small, poorly fitted or top-dose-only effect; inactive = no such curve, though single readings can be large or run the other way; tested in HEK293T cells; note: % is set by controls: 0 for no effect and ±100 for the full control effect; nearly all actives have a fitted effect of over 45% in size; luciferase light after 4 h
LASV entry inh: Lassa virus entry inhibition. Lassa virus pseudotype entry inhibition, cell reporter; control for the full effect not named in the record. Potency, µM (top dose mostly 37.9 µM), for inactives: top-dose activity change, negative = inhibition, usual class: inhibitors. hit rate 1.2% among 300,000. AID 540256; active means well fitted inhibition curve with a large enough effect; inconclusive means small, poorly fitted or top-dose-only effect, or effect the other way; inactive means flat fitted curve, though single readings scatter; tested in HEK293 cells; note: % is set by controls: 0 for no effect and ±100 for the full control effect; nearly all actives have a fitted effect of over 50% in size; luciferase read-out
Cruzain inh Det: cruzain (T. cruzi) inhibition with detergent; P25779; purified cruzain, Z-FR-AMC fluorescence, 0.01% Triton; Potency, µM, for the others: max response, negative = inhibition, hits mostly inhibitors; hit rate 0.43% among 200,000; AID 1478;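 note: plate controls were neutral wells for no effect and buffer without enzyme for full effect; nearly all actives have a fitted effect of over 40% in size; top concentration of the series not given in the record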
Target sequence (P25779 123-467 limits assumed): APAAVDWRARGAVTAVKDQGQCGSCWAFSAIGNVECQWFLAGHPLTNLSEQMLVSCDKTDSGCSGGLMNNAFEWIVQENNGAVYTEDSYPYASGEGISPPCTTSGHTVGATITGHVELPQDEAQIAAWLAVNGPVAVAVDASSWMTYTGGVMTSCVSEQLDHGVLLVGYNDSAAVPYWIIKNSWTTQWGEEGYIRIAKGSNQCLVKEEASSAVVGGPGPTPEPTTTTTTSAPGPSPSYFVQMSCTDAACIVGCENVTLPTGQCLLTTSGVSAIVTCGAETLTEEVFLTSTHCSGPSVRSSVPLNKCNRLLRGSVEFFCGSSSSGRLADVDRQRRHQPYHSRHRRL
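Steps: dispense cruzain (1.5 nM final) in acetate buffer pH 5.5 with DTT and 0.01% Triton X-100; pin-transfer compounds; incubate 15 min RT; add Z-FR-AMC (2 uM final); read fluorescence every 30 s, using the 60 s intensity change.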
NS1 inh: inhibitors of influenza NS1 protein function. hit rate 0.4% among 270,000. S. cerevisiae slowed by influenza A NS1, growth recovery by OD600. Potency, µM (highest dose often 46.1 µM), for the others: top-dose activity, positive = more growth; active means well fitted rising curve with a large enough effect; inconclusive means small, poorly fitted or top-dose-only effect; inactive means no such curve, though single readings can be large or run the other way; note: nearly all actives have a fitted effect of over 50% in size
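Read-out: OD600 growth recovery of NS1-expressing budding yeast. Cells grown overnight at 30C in -URA glucose medium, washed, resuspended and diluted 1:100 in 2% galactose assay medium, pH 6.0. Same strain lacking NS1 served as positive control.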
Marburg entry inh: blocks Marburg virus binding to or entry into cells; Potency, µM (titrated, usually from 37.8 µM), inactives show top-dose activity change, negative = inhibition, usual class: inhibitors; hit rate 1.8% among 300,000; Marburg virus pseudotyped entry inhibition, cell reporter; control for the full effect not named in the record; about a third of the inactives were read at about 46 µM; active = well fitted inhibition curve with a large enough effect; inconclusive = small, poorly fitted or top-dose-only effect, or effect the other way; inactive = flat fitted curve, though single readings scatter; tested in HEK293 cells; about a fifth of its hits are not listed in these tables; note: % is set by controls: 0 for no effect and ±100 for the full control effect; luciferase read-out
SARS PLP yeast: inhibitors of SARS-CoV papain-like protease in yeast. Potency, µM (highest dose often 32.9 µM), inactives show at the highest dose activity, positive = growth rescue. AID 485353. S. cerevisiae expressing SARS-CoV PLpro, growth rescue; control for the full effect not named in the record. hit rate 0.19% among 330,000; active means well fitted rising curve with a large enough effect; inconclusive means small, poorly fitted or top-dose-only effect; inactive means no such curve, though single readings can be large or run the other way; note: 0% is about no effect; nearly all actives have a fitted effect of over 55% in size; growth read by luminescence after 48 h
Cruzain noTriton: cruzain (T. cruzi) inhibition without detergent. P25779. hit rate 2.3% among 200,000. purified cruzain, Z-FR-AMC fluorescence, no detergent. Potency, µM, for the others: max response, negative = inhibition, actives largely listed as inhibitors. AID 1476;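 note: plate controls were enzyme without inhibitor for no effect and buffer without enzyme for full effect; nearly all actives have a fitted effect of over 40% in size; top concentration of the series not given in the record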
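Purified cruzain at 1.5 nM, pre-incubated 15 min with compound at room temperature in 100 mM sodium acetate pH 5.5, 5 mM DTT, 0.00005% Triton X-100. Reaction started with 2 uM Z-FR-AMC; AMC fluorescence increase over 60 s gives rate.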
RE007 growth inh: less growth of the S. pombe RE007 Vpr strain; S. pombe RE007 Vpr strain, BacTiter-Glo ATP luminescence, 24 h; control for the full effect not named in the record; Potency, µM (doses to about 92.2 µM), for inactives: at the top dose activity change, negative = less growth; hit rate 0.21% among 360,000; active = well fitted falling curve with a large enough effect; inconclusive = small, poorly fitted or top-dose-only effect; inactive = no such curve, though single readings can be large or run the other way;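 note: % is set by controls: 0 for no effect and ±100 for the full control effect; nearly all actives have a fitted effect of over 50% in size; the assay follows cell death caused by Vpr and the record does not say whether a fall means rescue or toxicity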
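Fission yeast RE007 carrying one integrated HIV-1 vpr copy, seeded at OD 0.01 in PMG+AL medium with 23 nL pinned compound. Grown 24 h at 30 degrees; viability read by BacTiter-Glo luminescence after 5 min.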
* = called active by the depositor; u = inconclusive; x = not tested or not shown; & = joins results of further samples; [ ] = remark or other dose. Unless noted, calls come from the whole dose curve; as a rule, active = well fitted curve in the direction sought with a large enough effect; inconclusive = small, poorly fitted or top-dose-only effect, or another doubt; inactive = no such curve, though single readings can be large; an effect the other way counts as inactive or inconclusive. Potency is the fitted concentration of half-maximal effect.

SMILES	StopGo reporter	LASV entry inh	Cruzain inh Det	NS1 inh	Marburg entry inh	SARS PLP yeast	Cruzain noTriton	RE007 growth inh
c1ccc(-c2cn3nc4c(nc3n2)CCCC4)cc1	5.6µM*	1.1µM*	-9.6%	-57%	1µM*	-7%	3%	u
Cn1cnnc1SCC(=O)Nc1ccccc1C(=O)NC1CC1	-3%	-8%	1.5%	1%	-29%	7%	11%	-19%
COC(=O)c1c(-c2c(Cl)cccc2Cl)noc1NC(=O)NN1CCOCC1	7%	1%[46.1 µM]	x	2%	3%[46.1 µM]	2%	x	-7%
O=c1oc(Cc2ccccc2)nc2ccccc12	43%[activator]	x	x	4%	7%	-2%	x	8%
COCCSc1nnc(NC(=O)C2CC(=O)N(C3CCCC3)C2)s1 (stereo unspecified)	-18%	-1%	x	5%	4%[46.1 µM]	-1%	x	4%
Cc1ccc2c(c1)NC(=O)C(CC(=O)NCCCN1CCN(c3cc(C)ccc3C)CC1)O2 (stereo unspecified)	u	x	1.1%	u	3%	-17%	u	8%
CCc1nnc(SCc2ccc(F)cc2Cl)c2cc3sc(C)cc3n12	-13%	8%[46.1 µM]	-1.2%	x	x	x	7%	x
Cc1ccc(C)c(Cn2c(=O)n(CCCCCC(=O)NCc3ccc4c(c3)OCO4)c(=O)c3sccc32)c1	-24%	u	-1.4%	x	19%[46.1 µM]	x	1%	x
O=C(c1ccccc1Cl)N1CCCCC1CCN1CCOCC1 (stereo unspecified)	-5%	8%[46.1 µM]	3.0%	x	10%[46.1 µM]	x	-5%	x
COc1ccc(NC(=O)CN(C)C(=O)c2cc(C)on2)cc1	-18%	11%	x	x	10%[46.1 µM]	-1%	x	4%
CCOc1ccc(NC(=O)c2c(NCc3cccnc3)sc3c2CCC(C)C3)cc1 (stereo unspecified)	36%[activator]	8%[46.1 µM]	-4.4%	x	x	x	18%	x
CCOC(=O)c1cc2nc(Nc3ccc(OC)cc3)sc2s1	15%	-13%	0.2%	-6%	4%	2%	-4%	-2%
COc1ccc(-c2cc3c(=O)n(CC(=O)NCc4ccc(F)cc4)ncn3n2)cc1	0%	x	x	-1%	x	3%	x	-12%
CCc1nnc(NC(=O)CSc2nnc(-c3ccccc3O)n2CC)s1	-5%	4%	-3.6%	-9%	7%	0%	-6%	11%
OCCCc1nc2n(n1)C(c1ccccc1Cl)C=C(c1cccs1)N2 (stereo unspecified)	-6%	14%	-7.7%	4%	11%	-2%	-5%	2%
CCN1CCN(Cc2nc3c(c(=O)n(C)c(=O)n3C)n2Cc2ccccc2Cl)CC1	x	x	0.9%	-9%	x	8%	-1%	x
CCn1cc(C(=O)OCC(=O)Nc2cc(OC)cc(OC)c2)c(=O)c2ccc(C)nc21	-13%	u	-3.0%	x	3%[46.1 µM]	x	5%	x
Cc1ccc2cccc(NC(=O)c3ccc(-c4cccc(Cl)c4Cl)o3)c2n1	-11%	-3%[46.1 µM]	-3.0%	x	0%[46.1 µM]	x	-8%	x
CC1CCN(C(=O)CSc2nnc(CNC(=O)COc3ccc(Cl)cc3)o2)CC1	-7%	-21%	-0.1%	-2%	6%	0%	2%	11%
O=C(Cn1ncc2c([nH]c3ccccc32)c1=O)NCCCN1CCN(c2ccccc2)CC1	-18%&-19%	16%[46.1 µM]	x	2%	x	-4%	x	-7%
O=C(NNCc1ccc(O)cc1)c1ccccc1Cl	52%[activator]	x	x	0%	x	3%	x	4%
O=C(c1cc(-c2cccs2)nc2ccccc12)N1CCN(S(=O)(=O)c2cccc(F)c2)CC1	-19%	-12%	-5.9%	-5%	u	-4%	u	16%
COc1cc(=O)[nH]c(SCC(=O)Nc2ccc3ccccc3c2)n1	-12%	16%[46.1 µM]	x	7%	-1%[46.1 µM]	4%	x	-6%
O=C(O)c1cc(O)c2c(c1)C(=O)c1cc(O)cc(O)c1C2=O	-29%&-17%	x	-4.1%	1%	x	0%	-9%	2%

Some entries already given, limited to Marburg entry inh, RE007 growth inh and Cruzain noTriton:
Compound	Marburg entry inh	RE007 growth inh	Cruzain noTriton
O=C(Cn1ncc2c([nH]c3ccccc32)c1=O)NCCCN1CCN(c2ccccc2)CC1	x	-7%	x
O=C(NNCc1ccc(O)cc1)c1ccccc1Cl	x	4%	x

Additional results:
SMILES	StopGo reporter	LASV entry inh	Cruzain inh Det	NS1 inh	Marburg entry inh	SARS PLP yeast	Cruzain noTriton	RE007 growth inh
CNC(=O)Nc1cc(C(F)(F)F)cc(C(F)(F)F)c1	5%	1%	x	-5%	-27%&-27%[14.2 µM]	-5%	x	-5%
CN1/C(=C/C(=O)C2CC2)C(C)(C)c2ccccc21	-6%	5%	x	x	-22%[46.1 µM]	-12%	x	-4%
COc1ccc(NC(=O)CN2CCC(NC(=O)C3CCCCC3)CC2)c([N+](=O)[O-])c1	-20%	x	x	-3%	x	-2%	x	0%
Cc1ccc(O)c(NC(=O)c2noc3c2CCCCC3)c1	50%&-29%[activator]	u	-14%	x	u	-9%	-13%	6%
COc1ccc(S(=O)(=O)N2CCCC2C(=O)Nc2nnc(-c3cccnc3)s2)cc1 (stereo unspecified)	x	12%	u	-20%	-2%	1%	u	-24%
Cn1c(N)c(C(=O)Nc2ccccc2F)sc1=S	27%	x	x	-4%	x	0%	x	0%
COc1ccc(OC)c(C(C(=O)NC2CCCCC2)N(C(=O)c2snc(C(N)=O)c2N)c2ccccc2OC)c1 (stereo unspecified)	-22%	u	x	u	u	1%	x	0%
CCN(C(=O)CSc1nc2ccccc2n1CC(=O)NCc1ccc(OC)cc1)c1ccccc1	12%	u	-1.8%	x	x	x	4%	x
Cc1ccc2c(c1)C(SCC(=O)NCCc1ccccc1)CC1(CCCC1)O2 (stereo unspecified)	35%[activator]	2%	-5.4%	6%	-2%	2%	5%	4%
NC(=S)NNC(=S)Nc1ccccc1	24%	14%	x	-4%	8%[46.1 µM]	-5%	x	u
C=CCN(c1cccc(C(F)(F)F)c1)S(=O)(=O)c1cccc(C(=O)OCC(=O)NCCC)c1	-3%	-6%	-8.1%	2%	3%[46.1 µM]	13%	u	19%
COC(=O)c1cc2oc3ccccc3c2n1CC(=O)Nc1ccc(C)c(F)c1	-24%	x	0.5%	x	0%[46.1 µM]	x	8%	x

Overlap with the part before: four entries; new compounds follow.
SMILES	StopGo reporter	LASV entry inh	Cruzain inh Det	NS1 inh	Marburg entry inh	SARS PLP yeast	Cruzain noTriton	RE007 growth inh
Cc1ccc2c(c1)C(SCC(=O)NCCc1ccccc1)CC1(CCCC1)O2 (stereo unspecified)	35%[activator]	2%	-5.4%	6%	-2%	2%	5%	4%
NC(=S)NNC(=S)Nc1ccccc1	24%	14%	x	-4%	8%[46.1 µM]	-5%	x	u
C=CCN(c1cccc(C(F)(F)F)c1)S(=O)(=O)c1cccc(C(=O)OCC(=O)NCCC)c1	-3%	-6%	-8.1%	2%	3%[46.1 µM]	13%	u	19%
COC(=O)c1cc2oc3ccccc3c2n1CC(=O)Nc1ccc(C)c(F)c1	-24%	x	0.5%	x	0%[46.1 µM]	x	8%	x
C=CCn1c(SCC(=O)C23CC4CC(CC(C4)C2)C3)nc(O)cc1=O	-15%	-2%	x	u	8%	1%	x	21%
CCCCN1C(=O)/C(=C/c2ccc(N3CCCCCC3)cc2)C(=O)NC1=S	x	x	-4.2%	2%	x	-12%	11%	x
CCC(CC)C(=O)NCCc1ccc(OC)cc1	-17%	7%	-3.6%	7%	7%	-1%	-6%	-13%
CN=C1c2ccccc2CN1c1cccc(C(=O)OC)c1	-23%	u	-0.3%	-3%	4%[46.1 µM]	2%	-1%	29%
CNS(=O)(=O)c1ccc(NC(=O)c2nc3nc(C)cc(C(F)F)n3n2)cc1	0%	1%[46.1 µM]	-3.5%&0.9%	0%	9%&9%[46.1 µM]	-2%	u	x
CC(C)c1ccccc1OCC(=O)Nc1nnc(C2CC2)s1	-6%	u	x	x	u	0%	x	-2%
COc1ccccc1C(=O)N1CCCCC1CCN1CCOCC1 (stereo unspecified)	-12%	14%[46.1 µM]	1.4%	x	13%[46.1 µM]	x	14%	x
Cc1ccc(NC(=O)CN2C(=O)COc3ccc(S(=O)(=O)Nc4ccccc4)cc32)c(C)c1	41%[activator]	-7%[46.1 µM]	-7.7%	x	x	x	-21%	x
COc1ccc(-c2nc(CSCC(=O)N3CCN(C(=O)c4ccco4)CC3)c(C)o2)cc1OC	0%	x	2.2%	1%	-4%	3%	18%	-11%
Cc1ccnc(SCCn2c(N3CCCCC3)nc3c2c(=O)[nH]c(=O)n3C)n1	x	x	4.1%	16%	x	0%	5%	x
Cc1ccc2nc(NC(=O)[C@H](C)N3C(=O)C4CC=CCC4C3=O)sc2c1 (stereo partly specified)	0%	-20%	x	x	6%[46.1 µM]	1%	x	4%
CCOC(=O)C1CCN(C(=O)CCNC(=O)Cn2ccc3ccccc3c2=O)CC1	3%	-19%	0.9%	4%	7%	4%	-3%	19%
NC(=O)c1cccnc1Nc1cccc(F)c1	0%	17%	-2.2%	-12%	5%[46.1 µM]	-30%	0%	-8%
O=C(CSc1nc2ccccc2[nH]1)NC1CCCc2ccccc21 (stereo unspecified)	-27%	5%	u	5%	5%	u	2%	18%
CCc1ccc(OCC2c3cc(OC)c(OC)cc3CCN2C(=S)NCCOC)cc1 (stereo unspecified)	-12%	-25%	-9.6%	5%	u	-18%	u	6%
CCCCOCCCNC(=O)c1ccc(NC(C)=O)cc1	11%	13%	8.9%	2%	10%	8%	-8%	5%
CC(=O)Nc1nnc(CCS(=O)(=O)c2ccc(C)cc2)s1	-16%	-7%	x	x	-29%[46.1 µM]	x	x	-20%
S=c1[nH]nc(COc2ccc(Cl)cc2)n1Cc1ccco1	-8%	-12%[46.1 µM]	x	x	-1%[46.1 µM]	u	x	8%
CCc1nnc(NC(=O)CCC(=O)N2CCN(Cc3cc(F)ccc3OC)CC2)s1	-11%	-15%	4.4%	-4%	-11%	2%	18%	4%
COc1ccc(CSc2nncn2N)cc1Br	-11%	-4%	1.7%	5%	-6%	-7%	-4%	3%

Bioassay records as filed in PubChem.
